H5N1 antiviral = antiviral screen in MDCK cells, H5N1 avian flu. cytopathic effect, luminescence, 72 h; hits give high values; no value below 0 was filed and about half of the inactive calls have no number; reference of the scale not given here. inhibition, % at 50 µM. 0.07% of 96,000 active; in the data active = inhibition above about 25%
An asterisk follows results filed as active; i = inactive.

| structure | H5N1 antiviral |
| --- | --- |
| COCCn1nnnc1C(c1cc2ccc(OC)cc2[nH]c1=O)N1CCN(C2CCCCC2)CC1 (configuration not stated) | 0.3 |
| C=CCC(=O)OCCCCCCOc1ccc(C(=O)O)cc1 | 0.1 |
| CCN(CC)S(=O)(=O)c1cccc(C(=O)N[C@H](C(=O)OCC(N)=O)C(C)C)c1 | i |
| COc1ccc(NC(=O)CSc2nc(O)cc(=O)n2C)cc1 | 0.4 |
| OC(CN1CCN(Cc2ccc3c(c2)OCO3)CC1)c1c[nH]c2ccccc12 (configuration not stated) | i |
| COc1ccccc1N1CCN(C(c2cc3cc(C)ccc3[nH]c2=O)c2nnnn2C2CCCC2)CC1 (configuration not stated) | i |
| O=C(NCc1ccco1)c1ccccc1F | i |
| Cc1nnc(SCc2ccccc2F)n1NCc1cccs1 | 3.0 |
| COP(=O)(OC)C(NC(=O)C(C)(C)C)=C(Cl)Cl | 2.1 |
| COc1ccc(OCc2nnc(SCC(=O)O)n2N)cc1 | i |
| CC(=O)c1cc(NC(=O)c2ccccc2)c(=O)oc1/C=C/N(C)C | 1.3 |
| COc1ccccc1N1CCN(C(=O)CN(Cc2ccc(Cl)cc2)S(C)(=O)=O)CC1 | 0.2 |
| Cc1nn(CC(=O)Nc2ccc3c(c2)oc2ccccc23)c(=O)c2ccccc12 | 0.1 |
| COc1ccccc1Nc1nnc(C)c(=O)[nH]1 | 0.8 |
| c1csc(CN2CCN(Cc3cccs3)C2c2cccs2)c1 | i |
| O=C(CSc1nc2cc(Cl)ccc2s1)N1CCN(C(=O)c2ccco2)CC1 | i |
| CCN(C(=O)c1cccc(F)c1)c1ccccc1C | 1.6 |
| CN(c1cccc(NC(=O)CSc2ccc(Cl)cc2)c1)S(C)(=O)=O | 0.8 |
| Cc1cc2c(C)nc(Cc3ccccc3)nc2o1 | i |
| Cc1nc2c(cc(Oc3ccc(S(=O)(=O)N4CCOCC4)cn3)c3ccsc32)s1 | 1.4 |
| Cc1cccc(C)c1-n1nnnc1S(=O)(=O)Cc1ccccc1Cl | i |
| Cc1ccc(S(=O)(=O)N2CCC(C(=O)NCc3ccncc3)CC2)cc1 | 0.1 |
| CC1(C)Cc2c(sc3c2C(=O)NC(c2cccnc2)N3)CO1 (configuration not stated) | 1.0 |
| Cc1ccc(C)c(NC(=O)Cn2nnc(C(=O)NCc3cccs3)c2N)c1 | i |
| CCCCn1c(SCn2nnc3ccccc3c2=O)nc2cc(S(N)(=O)=O)ccc21 | 1.1 |
| O=C(CCC(=O)c1cccs1)NCc1ccc(Cl)cc1 | i |
| COc1cc(/C=N\N=C2/SC(CC(=O)O)C(=O)N2c2ccc(O)cc2)ccc1O (configuration not stated) | i |
| Cc1ccc2c(c1)C(c1ccncc1)=NNC(c1ccc(C(C)C)cc1)=N2 | 0.2 |
| O=C(c1cccs1)N1CCC(c2ccccc2)C1 (configuration not stated) | 5.2 |
| COP(=S)(OC)SCN1C(=O)c2ccccc2C1=O | i |
| O=C(O)C1CCCN1S(=O)(=O)c1ccc2[nH]c(=O)c(=O)[nH]c2c1 (configuration not stated) | 0.7 |
| COc1cc(CN2CCSCC2)cc(OC)c1OC | 0.1 |
| Cc1ccc(NS(=O)(=O)c2ccc3c(c2)c(=O)n(C)c(=O)n3C)cc1F | 2.6 |
| COC(=O)c1ccc(NC(=O)CNC(=O)C2CCCCC2)c(C)c1 | 0.5 |
| CC1CCCC(C)N1C(=O)c1cc(F)c(F)cc1Cl (configuration not stated) | 2.9 |
| COc1cc2c(C(=O)O)c(C)n(CC(C)C)c2c2ccccc12 | 0.1 |
| COc1ccccc1C(=O)N1CCN(S(=O)(=O)c2ccccc2)CC1 | 0.6 |
| CCOc1cc(N2CCOCC2)c(OCC)cc1NC(=O)CN1CCc2ccccc2C1 | i |
| CCOC(=O)c1nn(-c2ccc3c(c2)OCO3)cc1O | i |
| CS(=O)(=O)N1CCc2cc(C(=O)N3CCOCC3)ccc21 | 0.4 |

Retrieved one by one from the list above, three records:
| structure | H5N1 antiviral |
| --- | --- |
| Cc1ccc(NS(=O)(=O)c2ccc3c(c2)c(=O)n(C)c(=O)n3C)cc1F | 2.6 |
| Cc1cccc(C)c1-n1nnnc1S(=O)(=O)Cc1ccccc1Cl | i |
| CS(=O)(=O)N1CCc2cc(C(=O)N3CCOCC3)ccc21 | 0.4 |

A second format for 2 compounds above.
smiles: Cc1ccc(NS(=O)(=O)c2ccc3c(c2)c(=O)n(C)c(=O)n3C)cc1F
  H5N1 antiviral: 2.6

smiles: Cc1ccc(C)c(NC(=O)Cn2nnc(C(=O)NCc3cccs3)c2N)c1
  H5N1 antiviral: i

Other structures:
| structure | H5N1 antiviral |
| --- | --- |
| Cc1noc(C)c1C(=O)OCC(=O)NC(=O)NC12CC3CC(CC(C3)C1)C2 | i |
| CCN(CC)c1ccc(CNC23CN4CN(CN(C4)C2)C3)cc1 | i |
| Cc1onc(-c2ccccc2Cl)c1C(=O)N1CCN(C(=O)c2ccco2)CC1 | 1.3 |
| CC(Oc1ccc(F)cc1)C(=O)Nc1sc2c(c1C(=O)NCc1cccnc1)CCCC2 (configuration not stated) | 1.9 |
| COc1ccc(OCC(=O)N2CCN(CC3CC4C=CC3C4)CC2)cc1 (configuration not stated) | i |
| CCCn1c(N2CCN(C(=O)N3CCCCC3)CC2)nc2ccccc21 | 0.6 |
| O=C(c1ccc(F)cc1)C(CN1CCOCC1)c1ccccc1 (configuration not stated) | i |
| CCCCCCN=CC1=C(O)C(C(=O)OC)C(C)(C)CC1=O (configuration not stated) | 1.2 |
| Cc1cc(C(=O)OC2CCOC2=O)c2ccccc2n1 (configuration not stated) | i |
| COc1ccc(CCCc2nnc(SCC(=O)Nc3cccc(C)c3)o2)cc1 | 0.6 |
| CCCc1cc(=O)[nH]c(SCCOC(=O)c2ccccc2)n1 | 0.6 |
| Fc1ccc(CNc2ncnc3c2cnn3-c2ccccc2)cc1 | i |
| CCCCCC(=O)Nc1ccc2oc(-c3cccnc3)nc2c1 | i |
| Cc1ccc(Cn2ccc(=O)c(OCc3c(Cl)cccc3Cl)c2C)cc1 | i |
| CCC1CCCCN1CCCNC(=O)c1ccc(CS(=O)(=O)Cc2ccccc2F)o1 (configuration not stated) | 1.2 |
| Cc1ccc(C)c(Nc2nc3nonc3nc2N2CCOCC2)c1 | i |
| COc1ccc(-c2noc(CSc3nc4ccccc4c(=O)n3-c3ccc(C)cc3)n2)cc1 | 0.3 |
| COC(=O)C1=C(C)NC(=O)NC1C1CC=CCC1 (configuration not stated) | i |
| CCOc1ccc(-n2cc(C(=O)NCc3ccco3)c3cc(OC)c(OC)cc3c2=O)cc1 | 1.8 |
| COc1ccc2nc(NC(=O)CCc3nc(C4=CCN(C)CC4)no3)sc2c1 | 1.3 |
| O=C(CSc1ccc2ccccc2c1)Nc1ccncc1 | i |
| Cc1cccc(N2CCN(S(=O)(=O)c3ccc4c(c3)CCN4C(=O)CCC(=O)O)CC2)c1C | 0.5 |
| O=C(c1ccccc1Br)N1CCN(c2ccccc2)CC1 | 0.6 |
| O=C(NCCc1ccco1)c1nn(Cc2ccccc2)c(=O)c2ccccc12 | i |
| O=c1oc2ccccc2c(N2CCCCC2)c1CN1CCCCC1 | i |
| CS(=O)(=O)N1CCN(C(=O)c2cc(-c3cccs3)nc3ccccc23)CC1 | 0.5 |
| O=C(CCC(=O)c1cccs1)OCc1nc2ccccc2s1 | 0.5 |
| O=c1[nH]c(=O)n(C2CCCCCC2)c(O)c1C=NC1CCN(Cc2ccccc2)CC1 | i |
| COc1cc2c(cc1OC)C1=C(C#N)CCC(=NC(=O)c3ccc(Cl)cc3)N1CC2 | 0.1 |
| COc1ccccc1C(=O)n1nc(-c2cccnc2)nc1N | 2.4 |
| c1ccc2c(c1)ncn2-c1ncnc2sc3c(c12)CCCC3 | 0.5 |
| O=C(NCCCN1CCCC1=O)Nc1ccc(F)c(Cl)c1 | i |
| CCC1(C)Cc2ccccc2-c2nc(-c3ccccc3)oc(=O)c21 (configuration not stated) | i |
| OC(COc1cccc2ccccc12)CN1CCCC1 (configuration not stated) | i |
| COC(=O)C(Cc1ccc(O)cc1)NC(=O)c1ccccc1 (configuration not stated) | 0.3 |
| CCOCCCNC(=O)N[C@@H](Cc1ccccc1)C(=O)OC | 0.6 |
| CCOC(=O)C1(S(=O)(=O)c2ccccc2)CCN(Cc2ccccc2)CC1 | 1.4 |
| Cc1noc(NS(=O)(=O)c2ccc(NC(=O)CC34CC5CC(CC(Br)(C5)C3)C4)cc2)c1C | 0.1 |
| Cc1cc(=O)[nH]c2c1c(=O)[nH]n2C1CC(C)N(C)CC1C (configuration not stated) | 1.5 |
| CCCCCNc1nc(N2CCCC2)c2c(c1C#N)CCN(C)C2 | i |

3 of these compounds, reformatted:
mol: COc1cc2c(cc1OC)C1=C(C#N)CCC(=NC(=O)c3ccc(Cl)cc3)N1CC2
- H5N1 antiviral: 0.1
mol: COc1ccccc1C(=O)n1nc(-c2cccnc2)nc1N
- H5N1 antiviral: 2.4
mol: c1ccc2c(c1)ncn2-c1ncnc2sc3c(c12)CCCC3
- H5N1 antiviral: 0.5

Next section
| structure | H5N1 antiviral |
| --- | --- |
| Cc1ccc(S(=O)(=O)NCCC(=O)Nc2ccc3c(c2)OCO3)cc1 | 0.4 |
| CCCCOc1nc2ccccc2nc1C(C#N)C(=O)NC1CCCCC1 (configuration not stated) | i |
| CC(C)Oc1ccc(C2CC(=O)NC3=C2C(=O)CCC3)cc1 (configuration not stated) | 0.3 |
| COCCCn1c(=N)c(C(=O)NCC2CCCO2)cc2c(=O)n3ccccc3nc21 (configuration not stated) | 2.0 |
| CC(=NCCCn1ccnc1)c1c(O)n(Cc2ccccc2)c(=O)[nH]c1=O | 0.9 |
| COc1ccc(-c2noc(CCC(=O)N3CCN(c4cccc(C(F)(F)F)c4)CC3)n2)cc1 | 2.9 |
| CC(C)NC(=O)CSc1nnc(-c2ccncc2)n1-c1ccccc1 | 0.8 |
| O=C(CSc1nc2c(sc3ccccc32)c(=O)n1CCCN1CCOCC1)NC1CCCC1 | i |
| O=C(Nc1ccccc1C(F)(F)F)Nc1cccc2ccccc12 | i |
| O=C(CSCSCC(=O)Nc1ccc2c(c1)OCO2)Nc1ccc2c(c1)OCO2 | i |
| O=C(COc1ccccc1)NC(=S)Nc1ccc2c3c(cccc13)CC2 | 0.4 |
| CCOC(=O)c1[nH]c(C)c(C(=O)OCC)c1C | i |
| Cc1cc(C)c(S(=O)(=O)N2CCC(C(=O)NCc3ccc(Cl)cc3Cl)CC2)c(C)c1 | 0.1 |
| O=c1oc(-c2ccccc2)nc2sc3c(c12)CCCC3 | i |
| O=C(Nc1ccccn1)Nc1cccs1 | 4.9 |
| CC1Cc2cc(/C(O)=C3/C(=O)C(=O)N(CCCn4ccnc4)C3c3ccco3)ccc2O1 (configuration not stated) | 0.4 |
| CCN(CC)S(=O)(=O)c1cccc2cc(C(=O)O)c(O)cc12 | 0.9 |
| Cn1c(SCC(=O)NCCNC(=O)CSc2nnc(C(F)(F)F)n2C)nnc1C(F)(F)F | i |
| COc1ccc(CCc2nc(C)ccc2O)cc1 | i |
| Cc1ccc(-c2cc(C(=O)O)n[nH]2)o1 | 1.1 |
| Cc1ccc(-n2nnc3c(=O)n(CC(=O)c4ccccc4)cnc32)cc1 | 0.6 |
| CCC(C)c1ccc(NC(=O)CSc2nncn2N)cc1 (configuration not stated) | i |
| CCC(=O)N1CCN(CCN=CC2=C(O)CC(c3cccs3)CC2=O)CC1 (configuration not stated) | 1.3 |
| O=C1CC(NCc2ccncc2)C(=O)N1c1ccc(Cl)cc1 (configuration not stated) | 0.3 |
| O=C(Nc1ncc2c(n1)CC(c1ccco1)CC2=O)c1ccccc1 (configuration not stated) | 2.4 |
| COc1ccc(-n2c(CSc3nc(C)cc(C)n3)nnc2SCC(=O)Nc2nccs2)cc1 | 1.2 |
| CCC1Oc2ccccc2N(CC(=O)NCCN2C(C)CCCC2C)C1=O (configuration not stated) | 0.3 |
| CCN1CCCC1CNC(=O)C(=O)Nc1ccc(OC)cc1 (configuration not stated) | i |
| Cn1c(Cn2nnc3ccccc32)nnc1SCC(=O)NCc1ccc2c(c1)OCO2 | 0.0 |
| CCOCCCNC(=O)C1CC(=O)N(C2CCCC2)C1 (configuration not stated) | 0.7 |
| CCOC(=O)CSc1nnc2n(Cc3ccccc3)c(=O)c3c4c(sc3n12)CCC4 | i |
| Cn1cnnc1SCC(=O)N(Cc1ccc2c(c1)OCO2)C1(C(=O)NC2CCCCC2)CCCC1 | i |
| O=[N+]([O-])c1cc(/C=N/O)ccc1Sc1ccccc1 | i |
| Cc1ccccc1C(OCC(O)CN1CCCCC1CCO)c1ccccc1 (configuration not stated) | i |
| CC(=O)Oc1cc2oc(=O)cc(C)c2cc1OC(C)=O | i |
| CN1CCN(c2ccc(NC(=O)C(C)(C)C)cc2)CC1 | 0.2 |
| CC(c1cccnc1)N(CCN(C)C)C(=O)Nc1ccc(Cl)cc1 (configuration not stated) | i |
| Nc1ncc(Br)cc1S(=O)(=O)NCCC(=O)Nc1cccc(Cl)c1 | i |
| COc1ccc(-n2nnnc2SCC(=O)Nc2nc3c(s2)CCCC3)cc1 | i |
| O=C(NC1CCCCC1)c1cc2nc(-c3ccco3)cc(C(F)(F)F)n2n1 | 0.5 |
| O=C(Nc1ccccc1C(=O)O)c1ccc(NC(=O)c2ccc(Br)o2)cc1 | i |
| O=C(Cn1cnc2ccccc21)N/N=C/c1ccccn1 | 1.1 |
| O=S(=O)(Nc1ccc(Cc2ccncc2)cc1)N1CCCC1 | 0.8 |
| COC(=O)C1CC(=O)N(CCc2c[nH]c3ccccc23)C1 (configuration not stated) | 0.6 |
| CCCNC(=O)C(NS(=O)(=O)c1ccc2c(c1)c(=O)n(C)c(=O)n2C)c1ccccc1 (configuration not stated) | 2.7 |
| COC(=O)C1=C(C)OC(N)=C(C#N)C1c1ccc(OC)c(OC)c1OC (configuration not stated) | i |
| Cn1nc(-c2ccc(Cl)cc2)c2cc(C(=O)NC3CC3)sc21 | i |
| COc1ccc(N2CCN(C(=O)NC34CC5CC(CC(C5)C3)C4)CC2)cc1 | 1.6 |
| Cc1ccc(SCC(=O)c2cc(C)c(OC(=S)N(C)C)c(C)c2)cc1 | 0.6 |
| Cc1ccc(S(=O)(=O)Nc2nc3ccccc3nc2N2CCc3ccccc3C2)cc1 | 2.8 |
| Cc1ccc(S(=O)(=O)N(CC(=O)NCCC2=CCCCC2)Cc2ccccc2)cc1 | 2.8 |
| O=C(Nc1ccccc1N1CCN(C(=O)c2ccc(Cl)cc2)CC1)c1ccc2c(c1)OCO2 | 0.1 |

This is a subset. The share of hits here may be higher or lower than overall.
